# Source: PubChem
# SARS PLpro yeast: inhibitors of SARS-CoV papain-like protease in yeast. Potency, µM (titrated, usually from 32.9 µM), without a hit: at the highest dose activity, positive = growth rescue. S. cerevisiae expressing SARS-CoV PLpro, growth rescue; control for the full effect not named in the record. AID 485353. actives 0.19% (n = 330,000); active means well fitted rising curve with a large enough effect; inconclusive means small, poorly fitted or top-dose-only effect; inactive means no such curve, though single readings can be large or run the other way; further: 0% is about no effect; nearly all actives have a fitted effect of over 55% in size; growth read by luminescence after 48 h
# Cruzain noTriton: inhibitors of Trypanosoma cruzi cruzain without detergent. P25779. purified cruzain, Z-FR-AMC fluorescence, no detergent. actives 2.3% (n = 200,000). Potency, µM, without a hit: max response, negative = inhibition, hits mostly inhibitors;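 further: plate controls were enzyme without inhibitor for no effect and buffer without enzyme for full effect; nearly all actives have a fitted effect of over 40% in size; top concentration of the series not given in the record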
# Target sequence (P25779 123-467 limits assumed): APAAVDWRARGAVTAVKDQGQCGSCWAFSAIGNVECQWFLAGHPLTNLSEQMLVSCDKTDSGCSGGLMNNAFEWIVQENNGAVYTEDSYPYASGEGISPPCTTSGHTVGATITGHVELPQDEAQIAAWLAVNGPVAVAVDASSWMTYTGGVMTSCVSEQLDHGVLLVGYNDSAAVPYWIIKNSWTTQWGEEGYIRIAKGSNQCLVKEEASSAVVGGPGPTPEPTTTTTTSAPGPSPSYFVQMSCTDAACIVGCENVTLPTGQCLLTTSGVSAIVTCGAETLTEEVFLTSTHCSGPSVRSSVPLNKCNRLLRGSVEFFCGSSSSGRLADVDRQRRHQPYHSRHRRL
#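 Purified cruzain at 1.5 nM, pre-incubated 15 min with compound at room temperature in 100 mM sodium acetate pH 5.5, 5 mM DTT, 0.00005% Triton X-100. Reaction started with 2 uM Z-FR-AMC; AMC fluorescence increase over 60 s gives rate.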
# NS1 function inh: blocks influenza NS1 protein function | S. cerevisiae slowed by influenza A NS1, growth recovery by OD600 | Potency, µM (highest dose often 46.1 µM), for inactives: top-dose activity, positive = more growth | actives 0.4% (n = 270,000); active means well fitted rising curve with a large enough effect; inconclusive means small, poorly fitted or top-dose-only effect; inactive means no such curve, though single readings can be large or run the other way; further: nearly all actives have a fitted effect of over 50% in size
#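 A cell-based growth assay was used: compounds that relieve NS1-induced slow growth of budding yeast raise OD600. Assay medium was yeast nitrogen base with ammonium sulphate and -URA supplement, pH 6.0, with 2% galactose.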
# 2A StopGo: FMDV 2A StopGo reporter, luciferase signal; human cells with a luciferase reporter of 2A StopGo recoding; control for the full effect not named in the record; Potency, µM (series often up to 57.9 µM), inactives show at the top dose signal change, negative = less light; actives 1.2% (n = 410,000); AID 1159524; active = well fitted falling curve with a large enough effect; inconclusive = small, poorly fitted or top-dose-only effect; inactive = no such curve, though single readings can be large or run the other way; tested in HEK293T cells; further: on the % scale 0 is the no-effect control and ±100 the full control effect; nearly all actives have a fitted effect of over 45% in size; luciferase light after 4 h
# Marburg entry inh: Marburg virus entry inhibition; Marburg virus pseudotyped entry inhibition, cell reporter; control for the full effect not named in the record; about a third of the inactives were read at about 46 µM; Potency, µM (doses to about 37.8 µM), without a hit: at the top dose activity change, negative = inhibition, most hits filed as inhibitors; actives 1.8% (n = 300,000); AID 540276; active = well fitted inhibition curve with a large enough effect; inconclusive = small, poorly fitted or top-dose-only effect, or effect the other way; inactive = flat fitted curve, though single readings scatter; tested in HEK293 cells; about a fifth of its hits are not listed in these tables; further: on the % scale 0 is the no-effect control and ±100 the full control effect; luciferase read-out
# LASV entry inh: blocks Lassa virus binding to or entry into cells; Lassa virus pseudotype entry inhibition, cell reporter; control for the full effect not named in the record; Potency, µM (series often up to 37.9 µM), for the others: top-dose activity change, negative = inhibition, usual class: inhibitors; actives 1.2% (n = 300,000); active means well fitted inhibition curve with a large enough effect; inconclusive means small, poorly fitted or top-dose-only effect, or effect the other way; inactive means flat fitted curve, though single readings scatter; tested in HEK293 cells; further: on the % scale 0 is the no-effect control and ±100 the full control effect; nearly all actives have a fitted effect of over 50% in size; luciferase read-out
# Cruzain inh Det: inhibitors of Trypanosoma cruzi cruzain with detergent | actives 0.43% (n = 200,000) | Potency, µM, without a hit: max response, negative = inhibition, hits mostly inhibitors | purified cruzain, Z-FR-AMC fluorescence, 0.01% Triton;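 further: plate controls were neutral wells for no effect and buffer without enzyme for full effect; nearly all actives have a fitted effect of over 40% in size; top concentration of the series not given in the record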
#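 In this qHTS format, compounds are incubated with 1.5 nM cruzain for 15 min at room temperature before 2 uM Z-FR-AMC is added. Release of AMC is followed at 360/450 nm, and progress is taken as the 60 s fluorescence difference.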
# RE007 growth inh: less growth of the S. pombe RE007 Vpr strain | S. pombe RE007 Vpr strain, BacTiter-Glo ATP luminescence, 24 h; control for the full effect not named in the record | Potency, µM (doses to about 92.2 µM), for inactives: at the highest dose activity change, negative = less growth | actives 0.21% (n = 360,000) | AID 651644; active = well fitted falling curve with a large enough effect; inconclusive = small, poorly fitted or top-dose-only effect; inactive = no such curve, though single readings can be large or run the other way;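 further: on the % scale 0 is the no-effect control and ±100 the full control effect; nearly all actives have a fitted effect of over 50% in size; the assay follows cell death caused by Vpr and the record does not say whether a fall means rescue or toxicity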
#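 Fission yeast strain RE007, carrying one chromosomally integrated HIV-1 vpr copy, was seeded at OD 0.01 in PMG+AL medium with 23 nL pinned compound. After 24 h at 30 °C and 99% humidity, viability was read by BacTiter-Glo luminescence.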
# Numbers without * were called inactive; ? = inconclusive; · = no result given; & = joins results of further samples; [ ] = remark or other dose. Unless noted, the call rests on the fitted dose curve; in most records, active means well fitted curve in the direction sought with a large enough effect; inconclusive means small, poorly fitted or top-dose-only effect, or another doubt; inactive means no such curve, though single readings can be large; an effect the other way counts as inactive or inconclusive. Potency means the concentration at half of the fitted maximal effect.
SMILES,SARS PLpro yeast,Cruzain noTriton,NS1 function inh,2A StopGo,Marburg entry inh,LASV entry inh,Cruzain inh Det,RE007 growth inh
O=C(Nc1ccc(CN2CCOCC2)cc1)c1ccccc1F,14%,5%,8%,39%,-16%,-2%,0.4%,7%
COc1ccc(/C=N/NC(=O)c2ccc(NC(=O)c3cccc([N+](=O)[O-])c3)cc2)c(OC)c1,2%,·,·,-6%,?,-25%,·,-1%
CCC(O)C1CCN(C(=O)c2cc(COc3ccc(F)cc3F)on2)CC1 (stereo not given),0%,·,-27%,9%,·,·,·,-15%
CCOC(=O)C1=C(c2ccccc2)NC(=O)NC1c1cc(OCC)c(O)c([N+](=O)[O-])c1 (stereo not given),-1%,·,?,-5%,-4%,-5%,·,-12%
S=c1[nH]ccn1CCc1ccccc1,0%,·,6%,16%,?,?,·,-12%
Cc1cc(C(=O)CSc2ncnc3ccccc23)c(C)n1C1CC1,-32%,·,·,-30%,10%,-1%,·,-12%
Cn1cc([N+](=O)[O-])c(C(=O)n2cccn2)n1,1%,·,?,-15%,?,3%,·,17%
COc1ccc(Nc2nc(N)nc(CN3CCN(c4ccc(F)cc4)CC3)n2)cc1,1%,·,0%,?,?,?,·,1%
O=C(O)c1cccc(CSc2n[nH]c(-c3ccc(Cl)cc3Cl)n2)c1,1%,·,5%,37%[activator],-24%[14.2 µM],-4%,·,-9%
CCOc1ccc(NC(=O)COC(=O)c2n[nH]c3ccccc23)cc1,1%,·,·,16%,?,6%[46.1 µM],·,2%
Cc1ccc2c(c1)N(CC(=O)N1CCN(C3CCCCC3)CC1)C(=O)CO2,0%,·,-1%,-11%,2%,3%,·,20%
COc1ccc(-c2nc3nc(C)cc(N4CCN(c5cccc(C(F)(F)F)c5)CC4)n3n2)cc1,·,-5%,·,-3%,1%[46.1 µM],?,-1.3%,·
COc1cc(CN2CCN(Cc3ccco3)CC2)cc(OC)c1,0%,·,-1%,-10%,0%[46.1 µM],5%,·,2%
COC(=O)c1cccc(N(CC(=O)NC2CCCCC2)C(=O)CNC(=O)c2cccs2)c1,2%,·,-13%,11%,-11%[46.1 µM],15%,·,-11%
COCCn1c(SCC(=O)N2CCC(C)CC2)nc2ccccc2c1=O,4%,7%,-16%,-12%,-8%,2%,-2.3%,8%
NC(=O)CC(NC(=O)c1ccccc1)c1ccc(N2CCCCCCC2)c([N+](=O)[O-])c1 (stereo not given),0%,·,20%,0%,·,·,·,1%
Cc1cccc(N2CCN(C(=O)CCSCc3ccccc3F)CC2)c1C,·,-6%,·,12%,·,-20%[46.1 µM],0.4%,·
COc1ccc(/C(O)=C2\C(=O)C(=O)N(c3cc(C)on3)C2c2ccccc2OC)cc1 (stereo not given),3%,-3%,17%,-9%,0%&2%,-2%,-3.2%,17%
COc1ccc(C(=O)Nc2nc3n(n2)C(c2ccc(Cl)cc2)C=C(c2ccccc2)N3)cc1OC (stereo not given),·,?,·,?,?,-19%[46.1 µM],-4.5%,·
CC(=O)NC(Cc1ccccc1F)C(=O)NC1CCN(C(=O)Nc2ccc(C)cc2)CC1 (stereo not given),-2%,·,0%,-4%,19%[46.1 µM],6%[46.1 µM],·,-1%
O=C(Nc1ccnn1C1CCN(C(=O)c2cccc(Cl)c2)CC1)C1CCOC1 (stereo not given),-3%,·,4%,-5%,-2%,-8%,·,-2%
O=[N+]([O-])c1cccnc1Oc1ccc(F)cc1F,1%,·,1%,-14%,12%,-3%,·,3%
CCCCCN1N=C(C)CC1=O,2%,·,·,1%,-13%[46.1 µM],2µM*,·,-13%
O=C(c1c[nH]c2ccccc12)C(F)(F)F,-3%,·,-1%,-20%,·,·,·,-19%
CN(Cc1ccccc1)C(=O)c1cccc(C(=O)N(C)Cc2ccccc2)c1,2%,·,-2%,17%,?,?,·,7%
CC(=O)c1cccc(Nc2c3c(nc4nc(-c5cccs5)nn24)CCCC3)c1,·,-8%,·,-16%,·,-7%[46.1 µM],-5.1%,·
N/C(=N/[N+](=O)[O-])N1CCN(C(=O)c2ccc(Cl)cc2)CC1,-7%,·,·,0%,1%,?,·,93%
Cc1cccc(Cn2c(-c3cccc(Br)c3)nc3ccccc32)c1,·,-7%,·,-19%,·,1%[46.1 µM],-3.8%,·
Cc1sc2nc(CSCC(=O)Nc3ccc(OC(F)F)cc3)[nH]c(=O)c2c1C,-1%,·,·,-8%,?,-15%[46.1 µM],·,11%
O=C(CN1CCN(Cc2ccccc2Cl)C1=O)NCc1ccccn1,0%,·,3%,-7%,·,·,·,-8%
COc1ccc(OC)c(NC(=O)CN2C(=O)NC3(CCOc4ccccc43)C2=O)c1 (stereo not given),7%,-6%,-9%,4%,?,5%,-0.6%,-11%
Cc1cc(C)nc(SCc2nnc(SCC(=O)Nc3nc(-c4ccccc4)cs3)n2-c2ccccc2)n1,-1%,?,13%,-21%,?,?,5.1%,28%
CCn1c(=NC(=O)C2COc3ccccc3O2)sc2c(C)ccc(OC)c21 (stereo not given),0%,·,-3%,?,·,·,·,4%
CC(=O)NC(CCS(C)(=O)=O)C(=O)Nc1ccc2c(c1)OCO2 (stereo not given),3%,1%,-5%,-29%,·,·,-1.9%,7%
CCC(C)(C)NC(=O)C(c1cccc(OC)c1)N(C(=O)c1ccn[nH]1)c1cccc(OC)c1 (stereo not given),7%,25%,1%,-17%,-25%&-25%,3%,-3.3%,18%
CN1C(=O)Cc2cc(S(=O)(=O)NCCc3ccccc3)ccc21,-3%,·,16%,75%&15%[activator],25%[46.1 µM],4%&2%[46.1 µM],·,1%
CC(C)n1c2ccccc2c2cc([N+](=O)[O-])ccc21,10%,-6%,-3%,-27%,?,5%,-7.2%,-1%
COc1ccc(-c2ccc(CO)o2)cc1N,-1%,·,9%,15%,0%[14.2 µM],-21%,·,7%
CCCCN(CCCC)CCCNC(=O)CC1Oc2ccc(C)cc2NC1=O (stereo not given),4%,-5%,-8%,-4%,?,-33%[14.3 µM],-1.3%,12%
CCOc1ccccc1N(CC(=O)NCc1ccccc1)C(=O)CCC(=O)Nc1cc(C)ccn1,-1%,·,-12%,-2%,10%[46.1 µM],2%[46.1 µM],·,-3%
O=[N+]([O-])c1ccccc1N/N=C\c1ccccc1F,-1%,·,-3%,41%[activator],?,-16%,·,-6%
COc1ccccc1NC(=O)N1CCN(c2ccnc3cc(Cl)ccc23)CC1,0%,·,-9%,?,?,-23%,·,?
CS(=O)(=O)N(CC(=O)Nc1cc(Cl)ccc1Cl)c1ccccc1,-4%,-1%,-1%,9%,11%,1%,2.8%,12%
COc1cccc(-n2nnnc2SCC(=O)Nc2ccc(NC(C)=O)cc2)c1,0%,·,7%,-6%,0%[46.1 µM],-2%[46.1 µM],·,-16%
COC(=O)c1cc(C(=O)OCC(=O)N(C)C2CCS(=O)(=O)C2)cc([N+](=O)[O-])c1 (stereo not given),0%,·,·,-8%,-10%[46.1 µM],-8%,·,0%
Cc1ccc(N2C(=O)C3C(C2=O)C(C(=O)c2ccc(Cl)cc2)N2CCCC32)cc1 (stereo not given),0%,-4%,-4%,-10%,25%&-6%,9%,-12%,-19%
Cc1c(Cl)cccc1NC(=O)NN1CCN(C)CC1,-1%,·,3%,-9%,6%[46.1 µM],?,·,9%
COc1cccc(N=c2oc3c(C)ncc(CO)c3cc2C(N)=O)c1,2%,0%,10%,42%[activator],-2%,-15%,0.7%,11%
CN(c1ccccc1)c1nc(N)c([N+](=O)[O-])c(Nc2cccc(F)c2)n1,-4%,·,5%,?,·,·,·,-16%
COC(=O)c1cc(C)nc(N)c1C#N,-1%,-13%,-4%,-14%,?,6%,-2.7%,2%
CC(C)CN1CCC(=O)N([C@H](CSc2ccccc2)Cc2ccccc2)CC1,2%,·,-10%,-29%,·,·,·,-18%
COC(CNS(=O)(=O)c1ccc(S(=O)(=O)N2CCCC2)cc1)OC,1%,·,3%,16%,14%[46.1 µM],?,·,23%
COc1ccc(-c2noc(-c3cccc(OC)c3OC)n2)cc1OC,2%,?,-43%,8%,·,·,-11%,-5%
COC(=O)NNC(=O)C(c1ccccc1)c1ccccc1,·,·,·,6%,-1%[46.1 µM],-11%,·,4%
Cc1cc(OCC(=O)OCC(=O)Nc2cc(S(=O)(=O)N3CCOCC3)ccc2Cl)ccc1Cl,6%,·,·,9%,4%[46.1 µM],8%[46.1 µM],·,-2%
O=C(CCCC(=O)Nc1cccnc1)Nc1cccnc1,-17%,-1%,4%,-15%,-8%,2%,13%,-2%
Cc1ccc(-n2nc3c(c2NC(=O)c2c(F)cccc2Cl)CS(=O)(=O)C3)cc1C,0%,·,20%,-19%,0%,-14%,·,4%
NC(=O)CSc1nc2ccccc2c(=O)n1Cc1ccccc1,5%,·,14%,-7%,·,·,·,1%
COC(=O)C1CC(O)CN1S(=O)(=O)c1cccs1 (stereo not given),0%,·,2%,6%,5%[46.1 µM],-4%[46.1 µM],·,-17%
CC(C)C(NS(=O)(=O)c1ccccc1)C(=O)OCc1cc([N+](=O)[O-])cc2c1OCOC2 (stereo not given),-5%,-5%,-12%,-3%,0%,1%,-9.2%,14%
# Additional compounds follow:
SMILES,SARS PLpro yeast,Cruzain noTriton,NS1 function inh,2A StopGo,Marburg entry inh,LASV entry inh,Cruzain inh Det,RE007 growth inh
CC(C)n1cnc(S(=O)(=O)N2CCCC(C(=O)NCc3ccccc3Cl)C2)c1 (stereo not given),·,-10%,·,4%,·,10%[46.1 µM],-1.4%,·
O=c1ccc2cc(S(=O)(=O)NCc3ccccc3)ccc2[nH]1,2%,·,11%,-1%,·,·,·,6%
COc1cc2c(cc1OC)C(C(=O)NC(C)C)C1CCCCN1C2=O (stereo not given),6%,·,-5%,6%,5%[46.1 µM],-39%,·,6%
COc1ccc(C2c3ccc4ccccc4c3Oc3ncn(CCCO)c(=N)c32)cc1 (stereo not given),-16%,·,?,-28%,?,11µM*,·,1%
Cc1ccc(NC(=O)CCCn2c3ccccc3c(=O)c3cc(C)ccc32)c(Br)c1,·,8%,·,-28%,·,2.8µM*,-0.2%,·
O=C(Nc1cccc([N+](=O)[O-])c1)N1CCCCCC1,2%,·,2%,18%,·,·,·,7%
